# OX1R FRET antag: antagonists of human orexin 1 receptor (OX1R) | Orexin/Hypocretin receptor type 1 (Homo sapiens), O43613 | AID 485270, 2010 | 330,000 compounds, 1.8% hits | inhibition, % at 6.6 µM | OX1R-expressing cells, FRET antagonist read-out; in the data active = inhibition mostly above about 38%, no sharp cut-off; inactive = mostly below about 40%;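 note: 0% = agonist challenge alone and 100% = reference antagonist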
# Target sequence (O43613 whole entry, looked up): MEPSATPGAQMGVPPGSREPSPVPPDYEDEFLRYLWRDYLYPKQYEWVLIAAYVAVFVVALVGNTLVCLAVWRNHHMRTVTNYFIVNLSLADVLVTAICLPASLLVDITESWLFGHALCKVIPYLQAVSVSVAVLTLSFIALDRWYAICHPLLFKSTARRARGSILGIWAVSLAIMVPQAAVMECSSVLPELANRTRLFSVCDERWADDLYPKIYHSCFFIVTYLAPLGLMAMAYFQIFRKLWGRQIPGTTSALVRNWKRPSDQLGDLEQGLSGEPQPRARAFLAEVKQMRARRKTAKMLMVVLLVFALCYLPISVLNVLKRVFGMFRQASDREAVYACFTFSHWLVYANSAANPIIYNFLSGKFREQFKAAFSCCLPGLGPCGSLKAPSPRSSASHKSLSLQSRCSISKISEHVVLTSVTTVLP
# * hit, by the source's call.
SMILES	OX1R FRET antag
COc1ccc(/C=C(\C#N)C(=O)NCc2cccnc2)cc1OC	22.3
Cc1ccccc1NC(=O)CCc1nnc2ccc(N3CCC4(CC3)OCCO4)nn12	11.1
CN(c1ccccc1)S(=O)(=O)c1ccc(NC(=S)NC(=O)c2ccccc2)cc1	35.8
CC1(C)Cc2c(sc(/N=C/N3CCOCC3)c2C#N)C(C)(C)N1	4.4
CCC(Cc1ccccc1)NC(=O)Cn1ncc2ccsc2c1=O (configuration not stated)	4.0
CC(=O)Nc1ccc(C(=O)OCC(=O)/C(C#N)=C(\C)N)cc1	11.4
O=C(NNC(=O)c1ccc(S(=O)(=O)N2CCOCC2)cc1)c1ccccc1	6.6
O=C(/C=C/Nc1ccc([N+](=O)[O-])cc1)c1ccc(Br)cc1	7.6

# Additional entries follow:
SMILES	OX1R FRET antag
COc1cc(CN2CCC(C(=O)N3CCCC(C)C3)CC2)cc(OC)c1O (configuration not stated)	16.9
COC(=O)c1c(NC(NC(C)=O)C(Cl)(Cl)Cl)sc2c1CCCC2 (configuration not stated)	16.2
O=C(NCc1ccccc1C(F)(F)F)C1CC(O)CN1C(=O)Nc1ccccc1 (configuration not stated)	3.0
C[C@@H]1CCC2[C@](C)(CO)[C@@H](O)CC[C@]2(C)[C@@]12C[C@](CO)(CC(=O)O)CO2 (some centres not stated)	-6.4
NS(=O)(=O)c1ccc(CCNC(=O)c2ccc(S(=O)(=O)N3CCCCC3)cc2)cc1	14.6
CC(=O)c1c(C)oc2ccc(NS(=O)(=O)c3cccs3)cc12	36.0
Cc1ccc(OCC(=O)Nn2cnnc2)c(Br)c1	5.1
CC(C)N1CCN(Cc2ccoc2)CC1CCO (configuration not stated)	16.6

# Following part:
SMILES	OX1R FRET antag
CN1CC(=O)Nc2ccccc2C1=O	-5.2
COC(=O)c1c(C)[nH]c(C(=O)NCc2ccco2)c1C	0.3
Cn1cnnc1SCC(=O)NN1C(=O)NC(C)(c2ccccc2)C1=O (configuration not stated)	-1.7
O=C(COc1ncnc2sccc12)N1CCc2ccccc2C1	1.7
CCCOCc1ccc(O)c2ncccc12	9.4
C=C(C)CSc1nc2ncc(Cl)cc2[nH]1	-0.4
CN(C1CCS(=O)(=O)C1)S(=O)(=O)c1ccc2ccccc2c1 (configuration not stated)	15.7
O=C(NCc1ccco1)c1cccc(S(=O)(=O)N2CCOCC2)c1	7.9

# Next part.
SMILES	OX1R FRET antag
Cc1nc(N/N=C/c2cccc(F)c2)cc(N2CCOCC2)n1	14.8
N#Cc1nc(-c2ccc(OCc3ccccc3)cc2)oc1NCCN1CCOCC1	17.6
COC(=O)c1ccccc1NC(=O)C1CCN(S(=O)(=O)c2cc(C)ccc2OC)CC1	5.9
CC1Cc2ccccc2N1C(=S)NC(=O)c1ccc(Cl)cc1Cl (configuration not stated)	37.8
CN=C1SC(CC(=O)Nc2cccc(C(F)(F)F)c2)C(=O)N1C (configuration not stated)	4.3
COc1ccc(C(C)=O)cc1CSc1nnc(SCc2cc(C(C)=O)ccc2OC)s1	18.5
CCOc1ccc(S(=O)(=O)N2CCCC(C(=O)N3CCC(C(N)=O)CC3)C2)cc1Cl (configuration not stated)	2.9
COc1cc2cc(C(c3nnnn3C3CCCC3)N3CCc4ccccc43)c(=O)[nH]c2cc1OC (configuration not stated)	4.4

# (continued)
SMILES	OX1R FRET antag
CCC(Sc1nc2c(c(=O)n1CC)SC(C)C2)C(=O)OC (configuration not stated)	12.6
CC(C)C(=O)Nc1cccc(-c2nc3ncccc3o2)c1	5.8
COc1cccc(C(=O)N2CCN(Cc3ccc4c(c3)OCO4)CC2)c1OC	18.4
COc1ccc(C)cc1NC(=O)COC(=O)c1ccc([N+](=O)[O-])o1	52.1
CCOc1ccc(C2NC(=O)c3sc(=S)n(-c4ccccc4)c3N2)cc1 (configuration not stated)	8.7
COc1ccc(C2=[N+]([O-])C(C)(C)N(O)C2C)cc1 (configuration not stated)	12.3
c1cn(-c2ccc(-c3ccnc4ncnn34)cc2)cn1	41.5
CCc1nnc(NC(=O)c2nc3nccc(C)n3n2)s1	22.4

# Next results.
SMILES	OX1R FRET antag
CC(C)Sc1nc(SCC(=O)O)c2c3c(sc2n1)COC(C)(C)C3	23.7
Cc1ccc(Nc2cc(C)nc3ncnn23)c(Cl)c1	11.8
CCOC(=O)c1c(NC(=O)COC(=O)CCOc2ccc(OCC)cc2)sc(C(=O)N(C)C)c1C	18.8
O=C(NC1CCCC1)C(c1ccsc1)N(CCc1ccccc1)C(=O)Cc1cccs1 (configuration not stated)	10.5
O=C(CSc1nncc2ccccc12)Nc1cccc(C(=O)O)c1	14.8
NC(=O)C1CCN(c2ncc(C(F)(F)F)cc2Cl)CC1	4.7
Cc1ccc(C(=O)N2CCN(S(=O)(=O)c3ccccc3)CC2)cc1	14.3
Cc1cccc(-c2nnc(SCC(=O)N3CCCC3)o2)c1	22.1

# At a glance, two of the compounds above:
SMILES	OX1R FRET antag
CC(C)Sc1nc(SCC(=O)O)c2c3c(sc2n1)COC(C)(C)C3	23.7
Cc1ccc(Nc2cc(C)nc3ncnn23)c(Cl)c1	11.8

# Next part
SMILES	OX1R FRET antag
CCNc1c(NC(=O)COc2ccc(Cl)cc2)c(=O)oc2ccccc12	2.4
COc1ccc(C(=O)NCCCCCC(=O)N/N=C/c2ccco2)cc1OC	18.1
CCS(=O)(=O)N1CCN(C(=O)c2ccccc2[N+](=O)[O-])CC1	29.5
COc1ccc2nc(SCC(=O)Nc3ccccc3)[nH]c2c1	12.8
O=C(c1cc2cc(Br)cc(Br)c2oc1=O)N1CCOCC1	16.0
Cc1nc(Sc2cccn2C)c(C(F)(F)F)c(=O)[nH]1	1.0
CCOC(=O)N1CCC(NS(=O)(=O)c2cc(Br)cnc2N)CC1	14.4
CC12CCC(=O)N1C(C(=O)Nc1nnc(SCc3ccccc3)s1)CS2 (configuration not stated)	23.9

# The list goes on.
SMILES	OX1R FRET antag
CN(Cc1cccc(F)c1)C(=O)c1cccc(S(=O)(=O)N2CCN(Cc3ccccc3)CC2)c1	10.0
O=C(Nc1ccc(C(=O)N2CCOCC2)cc1)c1cccc(Br)c1	9.3
COc1ccccc1NS(=O)(=O)c1cccc(C(=O)N/N=C/c2c(C)nn(-c3ccccc3)c2N2CCCC2)c1	25.9
O=C(Nc1ccc(Cl)cc1[N+](=O)[O-])c1ccc2c(c1)OCCO2	7.5
COc1cccc2cc(C(=O)CS(=O)(=O)c3ccc(C(C)(C)C)cc3)c(=O)oc12	9.3
CCOc1ccc2[nH]c(=O)c(C(c3nnnn3CC3CCCO3)N3CCc4ccccc4C3)cc2c1 (configuration not stated)	14.1
Nc1nonc1-n1nnc(C(=O)N/N=C/c2c(F)cccc2Cl)c1-c1ccc2c(c1)OCO2	5.4
O=C(N/N=C/c1ccco1)C1COc2ccccc2O1 (configuration not stated)	5.6

# Additional records follow:
SMILES	OX1R FRET antag
CCOc1ccc(N2CC(C(=O)NCCCN3CCOCC3)CC2=O)cc1 (configuration not stated)	14.3
CCCCn1c(SCc2cccnc2)nc2c1c(=O)n(C)c(=O)n2C	13.0
Cc1ccc(S(=O)(=O)NCC(=O)N/N=C/c2ccc(Cl)cc2Cl)cc1	3.3
Cc1ccc(OCc2nnc(SCCN3CCOCC3)n2C)cc1	10.6
Cn1c(=O)oc2cc(S(=O)(=O)NCCC(=O)N3CCc4ccccc4C3)ccc21	19.6
CCNC(=S)N/N=C/c1ccc(-c2ccccc2)o1	31.7
CCCCc1nc2cc(C(=O)NC3CCOC(C)(C)C3)ccc2o1 (configuration not stated)	1.9
COc1ccc(-c2ccc(-c3noc(-c4ccccc4OC)n3)c(OC)n2)cc1	35.4

# Next part
SMILES	OX1R FRET antag
CC(OC(=O)C1CCCCC1)C(=O)Nc1cccc(Cl)c1 (configuration not stated)	22.9
CCN1C(=O)[C@H]2[C@@H](c3ccc(-c4ccc5c(c4)OCO5)c(OC)c3)N[C@@](Cc3ccccc3)(C(=O)OC)[C@H]2C1=O	24.6
CC1CCCCN1S(=O)(=O)c1ccc(C(=O)Nc2nnc(-c3ccccc3Cl)o2)cc1 (configuration not stated)	19.7
CCOC(=O)c1sc(NC(=O)COC(=O)CNC(=O)c2ccco2)c(C(=O)OCC)c1C	1.7
C=C(Cl)COc1ccc2c(CCCC)cc(=O)oc2c1	18.3
CCN(C(=O)CSc1nnc(Cn2nnc3ccccc32)o1)c1nc(C)cs1	34.6
Cc1ccccc1N1CCN(C2CCCN(C(=O)c3snnc3C)C2)CC1 (configuration not stated)	7.7
COc1cc(C2=Nc3ccc(Br)cc3C(c3ccccc3)N2CC(=O)NN)cc(OC)c1OC (configuration not stated)	5.9

# (list continues)
SMILES	OX1R FRET antag
CN(Cc1nc2ccc(F)cc2[nH]1)Cc1nc(CC2CC2)no1	20.1
COc1ccccc1NC(=O)C1CCN(S(C)(=O)=O)CC1	1.3
COc1ccc(C(=O)NCc2nnc(SCC(=O)Nc3nc4ccccc4s3)o2)cc1	12.1
C[C@H](NC(N)=O)C(=O)N1CCN(S(=O)(=O)c2ccc3ccccc3c2)CC1	19.7
O=C(N/N=C/c1ccccc1Br)C1CC1	10.5
Cc1cccc(NC(=O)C2CCN(C(=O)NCc3ccccc3)CC2)c1C	17.9
C=CCN1C(=O)C(O)(CC(=O)c2ccco2)c2cc(Br)ccc21 (configuration not stated)	-1.9
O=[N+]([O-])c1cccc(CN2C[C@@]34C=C[C@@H](C[C@@H]3S2(=O)=O)O4)c1	27.3

# (more compounds)
SMILES	OX1R FRET antag
Cc1onc(-c2c(Cl)cccc2Cl)c1C(=O)NC(=S)N1CCOCC1	-2.0
CCCCN(CC)CCCNC(=O)c1ccc(CS(=O)(=O)c2ccccc2C)o1	0.0
CCCCN1C(=O)/C(=C2\SC(N3CCOCC3)=NC2=O)c2ccccc21	17.0
NC(=O)N1N=C2/C(=C/c3ccccc3)CCCC2C1c1ccccc1 (configuration not stated)	19.8
COc1cccc(/C=N/NC(=O)C(=O)N/N=C/c2cccc(OC)c2OC)c1OC	32.4
Cc1nn(-c2ccccc2)c(C)c1-c1nnc(-c2c(C)nn(-c3ccccc3)c2C)o1	-0.8
O=S(=O)(NCC(Nc1ccc(Cl)cc1)c1ccccc1)c1ccccc1 (configuration not stated)	-6.1
O=C1N/C(=N\N=C\c2cccnc2)SC1Cc1ccc(SC(F)F)cc1 (configuration not stated)	10.3

# The last four records of the section before open the next one.
SMILES	OX1R FRET antag
COc1cccc(/C=N/NC(=O)C(=O)N/N=C/c2cccc(OC)c2OC)c1OC	32.4
Cc1nn(-c2ccccc2)c(C)c1-c1nnc(-c2c(C)nn(-c3ccccc3)c2C)o1	-0.8
O=S(=O)(NCC(Nc1ccc(Cl)cc1)c1ccccc1)c1ccccc1 (configuration not stated)	-6.1
O=C1N/C(=N\N=C\c2cccnc2)SC1Cc1ccc(SC(F)F)cc1 (configuration not stated)	10.3
CC(C)c1nc2n[nH]c(N)c2c2c1CCCC2	23.8
O=C(Nc1ccccc1)N1CCN(c2cccc(C(F)(F)F)c2)CC1	13.8
O=S(=O)(Cc1ccccc1)NCC1CCCN(Cc2ccc(F)c(F)c2)C1 (configuration not stated)	19.6
O=C(O)CCCN=C1CCCc2ccccc2N1	17.3
COc1ccc(-c2cc(C)no2)cc1S(=O)(=O)N1CCN(c2ccccn2)CC1	0.0
Cc1oc2c(cc(NS(=O)(=O)c3ccc(F)cc3)c3ccccc32)c1C(=O)O	5.7
Cc1cccc2sc(N(CCN(C)C)C(=O)c3ccc4ccccc4c3)nc12	13.6
S=C(Nc1ccc(Cl)cc1)N(CCCN1CCOCC1)Cc1cccs1	6.8

# Other entries follow:
SMILES	OX1R FRET antag
COc1c(Cl)cc(Cl)cc1CNCc1ccccc1	13.2
O=C(CN1C(=O)CC(c2ccco2)Sc2ccccc21)NCC1CCCO1 (configuration not stated)	12.7
CC1CCN(S(=O)(=O)c2cccc(C(=O)Oc3ccc([N+](=O)[O-])cc3)c2)CC1	9.4
COc1ccc(NS(=O)(=O)c2ccc3c(c2)NC(=O)CO3)cc1	13.1
NC(=O)c1ccsc1NC(=O)C1CCCN1S(=O)(=O)c1ccc(Cl)cc1 (configuration not stated)	31.0
O=c1c2[nH]cnc2n(-c2ccc(F)cc2)c(=O)n1Cc1ccccc1	-1.9
CCOC(=O)c1ccc(N2C=C(C(=O)OC)C(c3cccc(O)c3)C(C(=O)OC)=C2)cc1	-6.4
O=C1CCC(=O)N1c1ccc(S(=O)(=O)N2CCCC2)cc1	8.4

# (list continues)
SMILES	OX1R FRET antag
Cc1cc([N+](=O)[O-])ccc1NC(=O)Nc1ccc(F)cc1F	13.4
CCCn1c(NC(=O)C2CCN(S(=O)(=O)c3cccs3)CC2)nc2ccccc21	19.2
CC1=C(C(=O)OCCCCCl)C(c2cc3c(cc2Br)OCO3)NC(=O)N1 (configuration not stated)	12.6
O=C(O)C1CCC1C(=O)Nc1nc(-c2ccc(Cl)s2)cs1 (configuration not stated)	3.1
O=C(Nc1ccc(Cl)cc1)Nc1nnc(Cc2ccc([N+](=O)[O-])cc2)s1	4.6
O=C(Nc1cccc(Br)c1)c1ccc2nc(N3C(=O)CCC3=O)sc2c1	6.3
Cc1nn(C)c(C(=O)NNC(=O)Nc2cccc(C(F)(F)F)c2)c1Cl	-1.2
Cc1ccc(C(C)(C)NC(=O)C2CCC(=O)N(Cc3ccccc3F)C2)cc1 (configuration not stated)	6.4

# More results.
SMILES	OX1R FRET antag
CCOC(=O)C1CCN(CC(=O)N2C(C)CCCC2C)CC1 (configuration not stated)	13.1
CCOc1ccc(C(=O)Nc2cc(Cl)ccc2-n2cncn2)cc1OC	17.8
Nc1nonc1-n1nnc(C(=O)N/N=C/c2cccc(Cl)c2)c1CN1CCCCCC1	12.8
Cc1ccc(S(=O)(=O)N(Cc2cccc(Cl)c2)C(=O)N2CCN(C)CC2)cc1	11.9
COc1ccc(CCNC(=O)CS(=O)(=O)c2cn(CC(=O)N(C(C)C)C(C)C)c3ccccc23)cc1OC	21.1
CC(=O)Nc1cccc(C(=O)/C=C/c2ccc[nH]2)c1	12.6
O=C(NC(=S)Nc1ccccc1N1CCOCC1)c1ccc(-c2cc(Cl)ccc2Cl)o1	3.8
COc1cc(-c2nnc(SCC3(c4ccccc4)OCCO3)o2)cc(OC)c1OC	37.1

# Screens as filed in PubChem BioAssay.

# Not all compounds are listed, and most or all hits are left out here.
